# Mtb MenB inh: M. tuberculosis MenB inhibitors, primary screen, biochemical, absorbance; 1,4-dihydroxy-2-naphthoyl-CoA synthase (Mycobacterium tuberculosis (strain ATCC 25618 / …; AID 540299, 2011; MenB enzyme assay, absorbance read-out; some hits fall short of the stated cut; 100,000 tested, 0.43% active; inhibition, %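 (about 12 µg/mL by stock and volumes)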;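 active = mean of two replicates above 30%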;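 also: 0% = no compound and 100% = wells with inactive enzyme; the first replicate is given; strong numbers were not always called active; inactives centre near -10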
# MbtI inh: MbtI salicylate synthase inhibitors, primary screen, biochemical, fluorescence intensity; purified MbtI enzyme, fluorescence intensity read-out; inhibition, %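 (about 17 µg/mL by stock and volumes)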; 100,000 tested, 0.89% active; AID 493033, 2011;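 active = above 50% in both replicates, above 80% if mildly self-fluorescent; inactive = the rest, strongly fluorescent compounds included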;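 also: 0% = mean of negative and 100% = mean of positive controls; one replicate is shown; some compounds called inactive have numbers as strong as hits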
# Target sequence (P9WFX0 whole entry, looked up): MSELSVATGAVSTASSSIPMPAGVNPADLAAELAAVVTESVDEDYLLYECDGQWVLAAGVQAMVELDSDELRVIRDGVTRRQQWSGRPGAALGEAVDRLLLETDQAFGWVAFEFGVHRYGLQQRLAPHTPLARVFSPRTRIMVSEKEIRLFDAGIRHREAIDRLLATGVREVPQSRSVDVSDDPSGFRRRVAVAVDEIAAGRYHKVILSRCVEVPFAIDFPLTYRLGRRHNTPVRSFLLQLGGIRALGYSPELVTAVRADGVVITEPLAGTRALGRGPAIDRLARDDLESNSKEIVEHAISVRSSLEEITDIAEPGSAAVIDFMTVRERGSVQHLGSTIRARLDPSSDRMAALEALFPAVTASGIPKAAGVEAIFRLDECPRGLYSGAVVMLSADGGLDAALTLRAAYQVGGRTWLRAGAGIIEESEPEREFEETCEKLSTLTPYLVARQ
# PV pol inh: poliovirus RdRp elongation inhibitors, primary screen, biochemical, fluorescence polarization, total intensity. poliovirus polymerase elongation; stronger effect = lower value. % elongation, % (compound at 16.7 µg/mL). 150,000 tested, 0.66% active; in the data active = % elongation below about 90%; also: some results filed as inactive read as strong as hits
# Target sequence (P03300 1749-2209 limits assumed): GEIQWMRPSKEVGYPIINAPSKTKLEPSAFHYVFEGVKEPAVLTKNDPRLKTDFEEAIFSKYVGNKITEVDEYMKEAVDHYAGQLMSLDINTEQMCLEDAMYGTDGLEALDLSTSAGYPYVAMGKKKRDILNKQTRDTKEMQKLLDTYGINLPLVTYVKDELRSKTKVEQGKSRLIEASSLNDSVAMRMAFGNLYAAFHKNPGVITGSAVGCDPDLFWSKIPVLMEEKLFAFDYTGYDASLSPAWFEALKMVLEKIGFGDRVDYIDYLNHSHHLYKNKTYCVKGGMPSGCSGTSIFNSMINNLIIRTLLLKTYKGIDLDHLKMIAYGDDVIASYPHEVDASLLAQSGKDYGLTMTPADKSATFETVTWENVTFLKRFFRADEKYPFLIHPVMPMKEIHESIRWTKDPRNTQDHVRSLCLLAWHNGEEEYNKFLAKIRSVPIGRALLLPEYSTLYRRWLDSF
# PV pol inh intensity: further read-out of PV pol inh, marked with its call; % elongation; measured here: total intensity read-out; formula for this scale not given here;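 total fluorescence in place of polarization; lower means less elongation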
# The depositor's hits bear a star; i = inactive; · = no result given; & = joins results of further samples.
SMILES,Mtb MenB inh,MbtI inh,PV pol inh,PV pol inh intensity
Cn1nc(C(C)(C)C)cc1C(=O)NC1CCCCNC1=O (configuration not stated),9,4,103,98
CN1CCOc2cc(S(=O)(=O)NCCc3ccc(Cl)cc3)ccc21,-37,-2,104,98
CC(C)C(=O)NNc1ncccc1C(F)(F)F,-15,31,103,104
O=C(c1cnn2c(C(F)F)cc(-c3ccccc3)nc12)N1CCc2ccccc21,-43,-5,105,102
Cc1ccc(C)n1-c1nn(S(=O)(=O)c2cccc(C(F)(F)F)c2)c2cccc(F)c12,-13,-4,107,117
Cc1cc(-c2noc(-c3ccccc3C)n2)c2ccccc2n1,-11,-11,103,105
CCS(=O)(=O)Nc1ccc(C(F)(F)F)cc1,1,-11,100,102
C=C1C(=O)O[C@@H]2[C@H]3O[C@]3(C)CC/C=C(\C)CC[C@@H]12,0&-4,-37&-24,98&98&101,103&102&100
Cc1ccc(C(=O)OCC(=O)Nc2ccc(N3CCOCC3)cc2)cc1,11,0,100,108
COc1ccc(CCNC(=O)CSC2=Nc3ccccc3C3=NC(C(C)C)C(=O)N23)cc1OC (configuration not stated),11,8,98,100
Cc1ccc(COc2ccc(I)cc2)cc1,5,-13,105,100
Cc1ccc(-c2c(C(=O)O)oc(=O)c3ccccc23)cc1,5,6,103,99
Cc1nc(CC#N)cs1,·,-14,97,95
O=c1cc(NCc2ccccc2)c2ccccc2o1,-20,5,98,101
Cc1cc(C)nc(NC(N)=NCc2cccnc2)n1,3,-22,100,105
CC(C)NC(=O)COn1nnc2ccc(S(=O)(=O)N(C)C)cc21,-18,7,103,107
CCSc1nn(CC(=O)c2ccc(F)cc2)c(=N)s1,-8,-2,107,110
O=C(Nc1ccccc1)Nc1ccc(Cl)cc1,10,-7,100,101
N=c1ccccn1CC(O)COc1ccccc1 (configuration not stated),-9,120,105,109
CCC(C)(C)NC(=O)CCc1ccc(S(=O)(=O)N2CCOCC2)cc1,0,-6,108,109
CCOc1nc(NCCC2=CCCCC2)nc(OCC)n1,-10,·,110,109
c1nc(Sc2nnnn2C2CC2)c2ccsc2n1,-7,18,108,107
CC1=CC(O)(c2ccccc2)C(N2CCOCC2)N1O (configuration not stated),-21,-11,100,99
CCC(=O)NCc1ccc2c3c(cccc13)C(=O)N2,-79,-8,101,103
O=C(NCc1ccccc1)c1c(O)nc2ccccn2c1=O,-18,2,101,103
Clc1ccccc1-c1nnc(CN2CCc3ccccc32)o1,-31,-8,104,102
CCc1cc(=O)n2[nH]c(C(F)(F)F)c(-c3ccccc3)c2n1,-10,i,98,104
COc1cccc(NC2OC(=O)c3ccccc32)c1 (configuration not stated),14,-4,98,101
CCCn1c(O)c(C=Nc2ccccc2C(=O)NC2CC2)c(=O)[nH]c1=S,-74,-150,106,107
Cc1ccc(NC(=O)NCc2noc3ccccc23)nc1,-4,-12,102,107
CC(OC(=O)Cn1cnc2ccccc21)c1ccccc1Cl (configuration not stated),-16,-7,102,99
CCN1/C(=c2/sc3nc4ccccc4n3c2=O)Sc2ccc(OC)cc21,-16,·,102,109
C[N+]1(C)CCOC(O)(c2ccc(-c3ccc(C4(O)C[N+](C)(C)CCO4)cc3)cc2)C1 (configuration not stated),-1,-9,101,102
O=C(COC(=O)C1CCC1)Nc1cccc(Cl)c1Cl,·,-9,100,104
O=C(NC1CCCCNC1=O)c1cn(S(=O)(=O)c2ccccc2)c2ccccc12 (configuration not stated),6,2,100,101
O=c1c2ccccc2nnn1CN1CCCCC1,1,42,102,108
OCCCn1c(-c2ccccc2)cn2c(-c3ccccc3)c(-c3ccccc3)nc12,-25,·,101,103
CCOC(=O)CSC1=C(C#N)C(c2ccccc2C)C2=C(CCCC2=O)N1 (configuration not stated),-15,14,102,101
O=C(NCc1ccco1)c1ccc2c(c1)N(Cc1c(F)cccc1Cl)C(=O)CS2,-23,0,100,105
Cc1cc(-c2ccccc2)nnc1-c1ccccc1,·,5,101,107
O=C(O)c1ccc(C(=O)O)c(C(=O)O)c1,17,-4,102,95
CCCN1CCC(NCc2ccco2)CC1,14,·,103,92
O=C(CN1CCc2ccccc2C1)NC1CCCC1,2,-2,103,105
CCn1c(C)c(C)c2cc(C(=O)NCCCN3CCCC3)ccc21,-9,-45,101,103
CC(=O)Nc1ccccc1OCC(=O)N(Cc1ccccc1)C(C)C,-17,-16,93,81
Cc1ccc(S(=O)(=O)N(CCO)Cc2cc3cc(C)c(C)cc3[nH]c2=O)cc1,17,32,102,104
CC(C)c1ccc(OCc2nnc(SCC(=O)NC3CCCCC3)o2)cc1,-37,-2,102,102
O=C(Oc1ccc(F)cc1)N1CCOCC1,16,-2,102,101
CC(C)(C)NC1=CC(=O)OC12CCCCC2,-8,·,109,117
N#CCSc1nnc(-c2ccc(Cl)cc2Cl)n1N,8,-5,103,111
O=C(Nc1cccc(Cl)c1Cl)NC1CC1,-29,-15,106,101
Cc1noc2nc(C(F)(F)F)cc(C(F)(F)F)c12,-1,-9,102,102
O=C(CSc1nc2ccccc2nc1N1CCOCC1)NCc1ccc2c(c1)OCO2,-2,0,106,100
O=C(N/N=C1\CCCCc2ccccc21)c1cccnc1,-22,-5,101,109
CNS(=O)(=O)c1cccc(C(=O)OCC(=O)N2CCc3ccccc32)c1,-22,8,100,107
Nc1ccc(S(=O)(=O)c2ccc(N)cc2)cc1,3&9,-37&-24,101&101,102&102
CCC(=O)N1CCc2cc(Br)cc(S(=O)(=O)N3CCCCC3CC)c21 (configuration not stated),-16,6,99,105
CCn1c(CSc2nc(C)cc(C)n2)nnc1SCc1ccccc1,16,1,102,101
CCOc1cc(N2CCOCC2)c(OCC)cc1NC(=O)c1cc(S(=O)(=O)N(C)C)ccc1Cl,-16,-16,110,113
CC1(C)CC(=O)C(C(C2=C(O)CC(C)(C)CC2=O)c2ccccc2)=C(O)C1,-95,-12,101,105
# Next structures:
SMILES,Mtb MenB inh,MbtI inh,PV pol inh,PV pol inh intensity
CS(=O)(=O)N1CCCc2cc(C(=O)NC3CCCCCCC3)ccc21,11,3,100,98
CCN1CCN(c2cc(C)c3cc(NC(=S)N(C)Cc4ccccc4)ccc3n2)CC1,-11,-16,101,97
N#Cc1ccc(-c2ccccc2)[nH]c1=O,-22,i,100,103
CCC(C(=O)Nc1cc(OC)ccc1OC)n1nnc(C(=O)OC)c1C(=O)OC (configuration not stated),-10,-3,101,103
CCN(CC)CCCNc1ncnc2c1cnn2-c1ccc(C)cc1,-8,111,101,101
O=C(NC1CCCCCC1)c1cnc2n(c1=O)CCS2,-23,-4,104,102
COc1cc(OC)cc(-c2nnc(SCC(=O)N=c3sccn3Cc3ccccc3Cl)o2)c1,-20,0,103,103
Cc1cc(C)nc(SCC(=O)Nc2c(C)n[nH]c2C)n1,-18,-4,102,97
O=C(c1cc(C2CC2)nn1-c1ccccc1)N1CCN(S(=O)(=O)c2ccc(F)cc2)CC1,-10,-10,100,91
O=C(Nc1ccccc1)C1CCCN(S(=O)(=O)c2ccccc2)C1 (configuration not stated),5,0,100,100
CCN(CC)CC(=O)NN1CC(=O)N(c2cccc(Cl)c2)CC1=O,13,-12,102,106
COC(=O)C1=C(C)N=C2SCCC(=O)N2C1c1ccccc1 (configuration not stated),-30,·,97,92
OC/C=C/C=C/c1ccc(F)cc1,-18,13,100,101
C=CCn1c(=S)[nH]c2ccc(Cl)cc2c1=O,-25,-9,102,106
COc1ccc2c(c1)cc1n2CCN=C1NCCO,-5,17,104,103

# 19 structures out of the list, sorted by number of heavy atoms, low to high.
SMILES,Mtb MenB inh,MbtI inh,PV pol inh,PV pol inh intensity
OC/C=C/C=C/c1ccc(F)cc1,-18,13,100,101
N#Cc1ccc(-c2ccccc2)[nH]c1=O,-22,i,100,103
C=CCn1c(=S)[nH]c2ccc(Cl)cc2c1=O,-25,-9,102,106
Nc1ccc(S(=O)(=O)c2ccc(N)cc2)cc1,3&9,-37&-24,101&101,102&102
Cc1noc2nc(C(F)(F)F)cc(C(F)(F)F)c12,-1,-9,102,102
COc1ccc2c(c1)cc1n2CCN=C1NCCO,-5,17,104,103
O=C(NC1CCCCCC1)c1cnc2n(c1=O)CCS2,-23,-4,104,102
O=C(N/N=C1\CCCCc2ccccc21)c1cccnc1,-22,-5,101,109
COC(=O)C1=C(C)N=C2SCCC(=O)N2C1c1ccccc1 (configuration not stated),-30,·,97,92
O=C(Nc1ccccc1)C1CCCN(S(=O)(=O)c2ccccc2)C1 (configuration not stated),5,0,100,100
CS(=O)(=O)N1CCCc2cc(C(=O)NC3CCCCCCC3)ccc21,11,3,100,98
CNS(=O)(=O)c1cccc(C(=O)OCC(=O)N2CCc3ccccc32)c1,-22,8,100,107
CC(C)c1ccc(OCc2nnc(SCC(=O)NC3CCCCC3)o2)cc1,-37,-2,102,102
Cc1ccc(S(=O)(=O)N(CCO)Cc2cc3cc(C)c(C)cc3[nH]c2=O)cc1,17,32,102,104
CCC(C(=O)Nc1cc(OC)ccc1OC)n1nnc(C(=O)OC)c1C(=O)OC (configuration not stated),-10,-3,101,103
CCN1CCN(c2cc(C)c3cc(NC(=S)N(C)Cc4ccccc4)ccc3n2)CC1,-11,-16,101,97
O=C(c1cc(C2CC2)nn1-c1ccccc1)N1CCN(S(=O)(=O)c2ccc(F)cc2)CC1,-10,-10,100,91
COc1cc(OC)cc(-c2nnc(SCC(=O)N=c3sccn3Cc3ccccc3Cl)o2)c1,-20,0,103,103
CCOc1cc(N2CCOCC2)c(OCC)cc1NC(=O)c1cc(S(=O)(=O)N(C)C)ccc1Cl,-16,-16,110,113

# (more compounds)
SMILES,Mtb MenB inh,MbtI inh,PV pol inh,PV pol inh intensity
C=CCNC(=O)c1scc2c1OCCO2,-19,·,103,108
C=CCN1C(CC(=O)Nc2cccc(Cl)c2)C(=O)NC2CCCCC21 (configuration not stated),-39,·,102,104
CCC(C)NC(=O)Cn1c2ccccc2c2cn[nH]c(=O)c21 (configuration not stated),7,82,101,103
Cc1nc2ccccc2nc1CSc1nc2ccccc2o1,-16,-4,103,106
CCc1ccc(NC(=O)c2cnn3ccccc23)cc1,-4,-51,101,101
CCCNCC(=O)Nc1cc(Cl)ccc1Cl,7,7,103,99
CSc1cccc(NC(=S)Nc2cccc(SC)c2)c1,-6,1,98,107
COc1ccc(C2=NNC(=S)C3=CNc4ccccc4N32)cc1,-23,·,139,154
Cc1[nH]c2ccccc2c1C(=O)C(C)N1CCN(C/C=C/c2ccccc2)CC1 (configuration not stated),-22,6,·,·
OC1(c2cccs2)CN(c2ccccc2)C2=[N+]1CCCS2 (configuration not stated),3,-3,101,105
CCCn1c(SCC(=O)C23CC4CC(CC(C4)C2)C3)n[nH]c1=O,-4,-8,103,108
Cc1ccc(OC(=O)CCC(=O)Nc2ccc(S(N)(=O)=O)cc2)cc1,-31,5,101,102
CCOc1ccc(NC(=O)CSC2=NCCS2)cc1,8,15,99,102
CCOC(=O)C1CCCN(C/C=C/c2ccccc2)C1 (configuration not stated),-32,-3,102,104
COc1cc(Cl)c(NS(=O)(=O)c2ccc3c(c2)CC(C)N3C(C)=O)c(OC)c1 (configuration not stated),5,-8,98,103

# Laid out differently: entries from further up
Cc1ccc(OC(=O)CCC(=O)Nc2ccc(S(N)(=O)=O)cc2)cc1
  Mtb MenB inh = -31
  MbtI inh = 5
  PV pol inh = 101
  PV pol inh intensity = 102
CCOc1ccc(NC(=O)CSC2=NCCS2)cc1
  Mtb MenB inh = 8
  MbtI inh = 15
  PV pol inh = 99
  PV pol inh intensity = 102
CCOC(=O)C1CCCN(C/C=C/c2ccccc2)C1 (configuration not stated)
  Mtb MenB inh = -32
  MbtI inh = -3
  PV pol inh = 102
  PV pol inh intensity = 104
COc1cc(Cl)c(NS(=O)(=O)c2ccc3c(c2)CC(C)N3C(C)=O)c(OC)c1 (configuration not stated)
  Mtb MenB inh = 5
  MbtI inh = -8
  PV pol inh = 98
  PV pol inh intensity = 103

# Going on with the list.
SMILES,Mtb MenB inh,MbtI inh,PV pol inh,PV pol inh intensity
Cn1c(=O)c2ccccc2n2c(CCC(=O)N3CCc4ccccc4C3)nnc12,-19,8,103,102
Oc1ccc(Cl)cc1C=Nc1cccc2nsnc12,-81,32,97,95
CC(=O)NC(C(=O)O)C(C)(C)SN=O (configuration not stated),0,-10,101,101
O=S(=O)(Nc1ccc(SC(F)F)cc1)c1ccccc1C(F)(F)F,-31,-6,104,101
